VACV mCherry inh = inhibitors of vaccinia virus infection (mCherry reporter signal); AID 720579; Potency, µM (series often up to 36.5 µM), without a hit: at the top dose activity change, negative = inhibition, hits mostly inhibitors; 0.63% of 310,000 active; Vaccinia virus mCherry reporter infection, fluorescence; about a quarter of the inactives have no number; active = well fitted inhibition curve with a large enough effect; inconclusive = small, poorly fitted or top-dose-only effect; inactive = no such curve, though single readings can be large or run the other way; tested in A549 cells; also: nearly all actives have a fitted effect of over 35% in size; inactives centre near -10
Vaccinia Venus = inhibitors of vaccinia virus (Venus reporter) | Vaccinia virus Venus reporter expression, fluorescence | Potency, µM (titrated, usually from 36.5 µM), for the others: at the top dose activity change, negative = inhibition, hits mostly inhibitors | 0.46% of 330,000 active | AID 720580; active means well fitted inhibition curve with a large enough effect; inconclusive means small, poorly fitted or top-dose-only effect; inactive means no such curve, though single readings can be large or run the other way; tested in A549 cells; also: nearly all actives have a fitted effect of over 30% in size; inactives centre near -10
An asterisk follows results filed as active; i = inactive; ? = inconclusive; . = no result given; & = joins results of further samples; [ ] = another dose, or the depositor's remark. % is scaled to controls: 0 for no effect and ±100 for the full control effect; potency is read from the fitted curve at half-maximal effect. Compounds were not picked by outcome (roughly 0.87% active in at least one column).

SMILES | VACV mCherry inh | Vaccinia Venus
CC(C)(C)OC(=O)N1CCC(c2c(C(=O)N3CCN(c4ccccc4)CC3)cnn2-c2ccccc2)CC1 | -11% | -13%
CCCCN1C(=O)c2ccc(C(=O)Nc3cccnc3)cc2C1=O | i | -21%
CC1=C(C(=O)N(C(C)C)C(C)C)CC(CC(=O)NCc2cccc3ccccc23)C(=O)N1Cc1ccc(F)cc1 (stereo not given) | -11% | -12%
N#Cc1c(SCC(=O)Nc2nccs2)nc2c(c1-c1ccco1)CCCC2 | -21% | -13%
CCN(CC)S(=O)(=O)c1ccc2c3c(cccc13)C(=O)S2 | -6% | -16%
CCn1c(SCC(=O)Nc2cccc(C)c2)nc2c(c1=O)SC(C)C2 (stereo not given) | 6% | -6%
COc1ccc(O)c(C(=O)c2cnn(C(=O)c3cccc(S(=O)(=O)N4CCOCC4)c3)c2)c1 | -1% | -12%
Cc1nc(-c2cccc(NC(=O)c3ccco3)c2)cs1 | -19% | -3%
Cn1cnnc1SCC(=O)Nc1ccc(Cl)cn1 | i | 1%
COc1ccc(N(CC(=O)NC(C)c2ccccc2)S(=O)(=O)c2ccc(C)cc2)cc1 (stereo not given) | ? | ?

Quoted from the listing (two entries):
SMILES | VACV mCherry inh | Vaccinia Venus
CC(C)(C)OC(=O)N1CCC(c2c(C(=O)N3CCN(c4ccccc4)CC3)cnn2-c2ccccc2)CC1 | -11% | -13%
CCCCN1C(=O)c2ccc(C(=O)Nc3cccnc3)cc2C1=O | i | -21%

Carrying on.
SMILES | VACV mCherry inh | Vaccinia Venus
O=C(CCN1C(=O)C2C3C=CC(C3)C2C1=O)Nc1c(F)cc(F)cc1Br (stereo not given) | . | ?
Cc1cc(NC(=O)COC(=O)C2=COCCO2)c([N+](=O)[O-])cc1C | -10% | 0%
O=C(COC(=O)/C=C/c1ccc(OC(F)F)cc1)Nc1ccc(S(=O)(=O)N2CCCC2)cc1 | i | -16%
Cc1nc(N)sc1CCN | -4% | -12%
COCc1c(C(=O)N2CCCCCC2)cnn1-c1nccc(-c2cccs2)n1 | -11% | -10%
COc1ccccc1CNC(=O)COC(=O)c1cc([N+](=O)[O-])ccc1N1CCOCC1 | -11% | -6%
Cc1ccc(NC(=O)C2CCN(c3nnc(C)c4c(C)n(-c5ccccc5)nc34)CC2)cc1Cl | -11% | -5%
O=C(NCCc1ccccc1)/C(=C\c1ccccc1)NC(=O)c1ccco1 | -9% | -3%
COc1ccccc1CNC(=O)NCc1noc2ccc(C)cc12 | -12% | -19%
COC(=O)c1sc(NC(=O)/C=C/c2ccc(C)cc2)nc1C | -12% | 0%
O=C(c1ccc(=O)[nH]c1)N(Cc1ccco1)C1(C(=O)NC2CCCC2)CCCCC1 | -9% | 6%
CCOC(=O)c1[nH]c2ccc(OC)cc2c1NC(=O)CCN1CCN(Cc2ccccc2)CC1 | -12% | -8%
CCOc1ccc(NC(C)c2cc(Cl)ccc2O)cc1 (stereo not given) | . | -27%
O=C(CSc1nnc(SCc2ccccc2)s1)N/N=C/c1ccc(C(=O)O)cc1 | -8% | -2%
CC(Sc1n[nH]c(N)n1)c1nc2scc(-c3cccs3)c2c(=O)[nH]1 (stereo not given) | . | ?
CCOc1cc(C2NC(=S)NC(C)=C2C(=O)Nc2ccccc2)ccc1O (stereo not given) | ? | 1%
COc1ccc(Cn2nnnc2CN(Cc2cc3cccc(C)c3[nH]c2=O)C2CCCC2)cc1 | -10% | -12%
CC(SCC(=O)NC12CC3CC(CC(C3)C1)C2)C(=O)O (stereo not given) | -7% | -8%
CCOc1ccc(-c2ccc(/C=C3/C(=N)N4C(C)=CSC4=NC3=O)o2)c([N+](=O)[O-])c1 | -23% | -1%
O=C(Cn1cnc2c(cnn2-c2ccccc2)c1=O)NC1CCCC1 | i | -8%
CC1CC(C)CN(S(=O)(=O)c2ccc(C(=O)NNC(=O)c3ccccc3F)cc2)C1 (stereo not given) | i | -18%
C[N+]1(C)C2CCC1CC(OC(=O)c1c[nH]c3ccccc13)C2 (stereo not given) | i | -11%
CCN(C(=O)c1cn(C)c(=O)c2cc(OC)c(OC)cc12)c1ccccc1C | -26% | -16%
CC(=O)Nc1ccc(/C=N/NC(=O)CCN2CCN(c3ccccc3)CC2)cc1 | -2% | -6%
Cc1onc(-c2ccccc2Cl)c1C(=O)Nc1cc(=O)n(C)c(=O)n1C | -2% | -18%
Nc1ncnc2c1ncn2[C@@H]1O[C@H](C(=O)N(CCC2=CCCCC2)CC2CC2)[C@@H](O)[C@H]1O | 15% | -3%
CC(C)C[C@H]1CN=C(N(C)C)N1CC(C)C | -14% | -6%
CNC(=O)n1ccc(C(=O)N2CCCCC2)n1 | -12% | -8%
CCCN(CC(=O)Nc1ccccc1C)C(=O)CCl | 4.5µM* | 4.5µM*
CCOc1ccc(CNC(c2ccccc2)c2ccccc2)cc1 | -11% | 4%
CC(Oc1cccc(Cl)c1)C(=O)Nc1ccc(S(=O)(=O)NC2=NCCCCC2)cc1 (stereo not given) | -4% | -20%
COCCN1CCN(C(=O)C2CCC(=O)N(CCCc3ccccc3)C2)CC1 (stereo not given) | -22% | -6%
CN(c1ccc(C(=O)N2CCOCC2)cc1)S(=O)(=O)c1ccc(Cl)cc1 | -1% | -10%
CCOC(=O)C1=C(CSc2nc(-c3ccncc3)ccc2C#N)OC(N)=C(C#N)C1c1cccnc1 (stereo not given) | -15% | -9%
CCCn1nc(Oc2nc(N(C)C)nc(N(C)C)n2)ccc1=O | -7% | -14%
CCc1nnc(NS(=O)(=O)c2ccc(NC(=O)/C=C/c3ccccc3Cl)cc2)s1 | -1% | -1%
COc1ccc(C)c2sc(NC(=O)C3CC3)nc12 | 14% | -5%
CS(=O)(=O)Nc1cccc(-c2ccc3nncn3c2)c1 | -4% | 8%
CCc1cc2c(cc3c(=O)n(CC(=O)N4CCN(c5cc(Cl)ccc5C)CC4)ncn32)s1 | -24% | -23%
Cc1cnc(CNC(=O)C2(C)CCCN2CC(C)C)cn1 (stereo not given) | 31%[activator] | 9%

Some of the entries so far, with each value named.
structure: Cn1cnnc1SCC(=O)Nc1ccc(Cl)cn1
  VACV mCherry inh: i	Vaccinia Venus: 1%

structure: COc1ccc(N(CC(=O)NC(C)c2ccccc2)S(=O)(=O)c2ccc(C)cc2)cc1 (stereo not given)
  VACV mCherry inh: ?	Vaccinia Venus: ?

structure: O=C(CCN1C(=O)C2C3C=CC(C3)C2C1=O)Nc1c(F)cc(F)cc1Br (stereo not given)
  VACV mCherry inh: .	Vaccinia Venus: ?

structure: Cc1cc(NC(=O)COC(=O)C2=COCCO2)c([N+](=O)[O-])cc1C
  VACV mCherry inh: -10%	Vaccinia Venus: 0%

(more compounds)
SMILES | VACV mCherry inh | Vaccinia Venus
Cc1ccc(C(=O)Nc2ccc3c(c2)nc(CCNC(=O)c2ccco2)n3C)cc1 | -13% | 3%
O=C1C=C(c2cccc(Cl)c2O)C[C@@H](c2ccc(Cl)cc2)C1 | -22% | -16%
COc1ccc(C(=O)Nc2noc3ccccc23)cc1 | -10% | -13%
O=c1[nH]cnc2c1ncn2[C@H]1CC[C@@H](CO)O1 | 31%[activator] | -2%&-3%
Cc1cc(C)c2c(-n3cccc3)n[nH]c2n1 | . | ?
Cn1c(=O)c2c(SCC(=O)Nc3ccccc3C(F)(F)F)nc(C3CCCC3)nc2n(C)c1=O | -10% | -19%
CCOC(=O)C1CCCN(C(=O)c2cccc3ccccc23)C1 (stereo not given) | ? | -9%
COc1cc(CN2CCCN(C)CC2)c([N+](=O)[O-])cc1OC | -7% | -19%
O=C(CCCCn1c(=O)[nH]c2ccsc2c1=O)N1CCN(c2cccc(C(F)(F)F)c2)CC1 | -24% | -21%
OC(c1ccc(F)c(F)c1)c1nc(-c2ccncc2)cs1 (stereo not given) | 15% | -4%
COc1cc(N2CCOCC2)ccc1C=C1C(=O)NC(=O)NC1=O | -11% | 9%
CN(CC(=O)Nc1ccc(F)cc1)C(=O)CSc1nnc(Cc2ccccc2)o1 | -7% | -12%
COCCNC(=O)c1ccc(NC(C)=O)cc1 | -11% | -4%
COc1ccc(C2CC(c3ccco3)n3ncnc3N2)cc1 (stereo not given) | 1% | 1%
CCOC(=O)c1c(C)nc2sc(C(=O)Nc3ccc(C(C)=O)cc3)c(N)c2c1-c1ccc(OC)cc1 | . | ?
COCCCNC(=O)c1cc2c(s1)CS(=O)(=O)C2 | i | -4%
N#CC1(C#N)CC(C=O)=C(N)C1(C#N)CC(=O)C12CC3CC(CC(C3)C1)C2 (stereo not given) | i | -2%
COc1ccc(NC(=O)CSCC(=O)Nc2ccc(S(=O)(=O)N3CCCC3)cc2)cc1 | -13% | -4%
O=C(Cn1c(=O)nc(-c2ccccc2)c2cc(Cl)ccc21)NCCCc1ccccc1 | 2% | 7%
Cc1ccc(C2=CC(=O)C[C@H](c3ccc(F)cc3)C2)cc1 | -13% | -21%
CC1(C)Cc2c(C#N)c(N3CCN(C(=O)c4ccco4)CC3)nc(Cc3ccccc3)c2CO1 | i | -13%
Cc1ccc(CCNC(=O)CCCn2c(=O)c3ccccc3n(CC(=O)Nc3cc(Cl)ccc3C)c2=O)cc1 | ? | -29%
CCc1c(C)sc(NC(=O)c2cc(-c3ccc(OC)cc3)on2)c1C#N | 4% | -1%
Cc1sc2ncn(CC(=O)N3CCN(c4ccccn4)CC3)c(=O)c2c1S(=O)(=O)N1CCCCC1 | i | -11%
CN1CC[C@@]23CCCC[C@@H]2[C@@H]1Cc1ccc(O)cc13 | i | -16%
COc1ccc(NC(=O)C2(C)CCN2Cc2csc3ccccc23)cc1OC (stereo not given) | ? | -26%
NS(=O)(=O)c1ccc(NC(=O)c2nc(S(=O)(=O)Cc3ccccc3F)ncc2Cl)cc1 | 21% | -9%
O=C(CN1CCCC1c1cccs1)Nc1cc(S(=O)(=O)N2CCCC2)ccc1Cl (stereo not given) | i | -8%
CC(=O)c1c(C)[nH]c(C(=O)NNC(=O)COc2cc(C)cc(C)c2)c1C | -2% | -2%
CN(CC(=O)Nc1ccc(N2CCOCC2)cc1)C(=O)c1ccc(CS(C)(=O)=O)cc1 | i | -12%
CN(C)c1oc(-c2ccco2)nc1S(=O)(=O)c1ccc(Br)cc1 | -18% | -5%
COc1ccc(C(c2nnnn2C(C)(C)C)N2CCN(C)CC2)cc1OC (stereo not given) | -14% | -13%
Cc1c(-c2ccccc2)nc2c(Cl)cccc2c1C(=O)OCC(=O)c1ccc(F)cc1 | -26% | -22%
O=C(NCCc1ccccc1)C1Cc2c(-c3ccccc3Oc3ccccc3)ccnc2O1 (stereo not given) | -23% | -9%
Cc1ccccc1C(=O)NNC(=O)c1cccn1C | -11% | 10%
CCN(C(=O)Cn1c(=O)n(CCCS(=O)(=O)C2CCCCC2)c(=O)c2ccccc21)c1cccc(C)c1 | -20% | 0%
Cc1ccc(C(=O)NCCN2CCC(n3c(=O)[nH]c4ccccc43)CC2)cc1C | -11% | -4%
C/C(=N\NC(=O)c1cccc(N/N=C(\C)c2ccccc2)c1)c1ccccc1 | -15% | -9%
O=C(NC1CCCCCC1)c1nnc(Cc2ccc(Cl)cc2)o1 | -17% | -15%
COCCCNC(=O)c1cc(S(=O)(=O)N2CCOCC2)ccc1SCc1cccc(OC)c1OC | -5% | -12%
COc1ccc(OC)c(CC2C(=O)Nc3ccc(Br)cc32)c1 (stereo not given) | -18% | -27%
COc1ccc(CCN(C)Cc2ccc(C(=O)Nc3ccccc3)cc2)cc1OC | i | -27%
CCc1c(C)nc(SCCOc2ccc(OC(C)C)cc2)[nH]c1=O | -20% | -3%
Cc1ccc(NC(=O)c2ccc(Cl)nc2)cc1S(=O)(=O)N1CCOCC1 | -11% | -24%
O=C(COC(=O)c1ncc(Cl)c(Cl)c1Cl)NC1CCCCCC1 | -13% | -22%
Cc1ccc2c(c1)C1CC(C)(O2)N(c2cccc(C(=O)NC3CCN(Cc4ccccc4)CC3)c2)C(=O)N1 (stereo not given) | -7% | -25%
O=C(Cc1cccc2ccccc12)Nc1ccc(O)cc1C(=O)O | i | -15%
O=C(Cn1cccc1C(=O)c1ccccc1)NCc1ccc(F)cc1 | -7% | -4%
O=C(Nc1ccc(S(=O)(=O)N2CCOCC2)cc1)c1ccc([N+](=O)[O-])s1 | ? | 1%
CCC1CCCCN1CCCNC(=O)c1nn(C)c2c1CS(=O)(=O)c1ccccc1-2 (stereo not given) | -9%[7.34 µM] | -3%[7.34 µM]

Part of the list above, with each value named:
mol: O=C(Nc1ccc(S(=O)(=O)N2CCOCC2)cc1)c1ccc([N+](=O)[O-])s1
  VACV mCherry inh: ?; Vaccinia Venus: 1%
mol: CCC1CCCCN1CCCNC(=O)c1nn(C)c2c1CS(=O)(=O)c1ccccc1-2 (stereo not given)
  VACV mCherry inh: -9%[7.34 µM]; Vaccinia Venus: -3%[7.34 µM]

(next part)
SMILES | VACV mCherry inh | Vaccinia Venus
COc1cc(C(=O)n2nc(C)c(Sc3ccc(Cl)cc3)c2C)cc(OC)c1OC | -18%[7.34 µM] | -10%[7.34 µM]
O=C1C=C(c2ccccc2)C(O)(c2ccccc2)C1 (stereo not given) | -2% | 0%
CC(=O)Nc1cc2c(cc1NC(=O)Cn1nnc(-c3ccc(C)o3)n1)OCCO2 | -2% | -8%
CO/N=C(\C(=O)N[C@@H]1C(=O)N2C(C(=O)O)=C(COC(N)=O)CS[C@H]12)c1ccco1 | -12% | -8%
CN(C)c1ccc(NC(=O)CSc2nc(N)c(C(=O)Nc3ccc(N(C)C)cc3)s2)cc1 | 4µM* | 4µM*
O=C(O)CC(c1ccc(Br)cc1)N1Cc2ccccc2C1=O (stereo not given) | i | -3%
Cc1ccccc1OCC(=O)OC(C(=O)c1ccccc1)c1ccccc1 (stereo not given) | -4% | 6%
Cc1ccc(-c2nnn(CC(=O)N(CCN3CCOCC3)C(C(=O)NC(C)(C)C)c3ccco3)n2)cc1 (stereo not given) | -12% | -4%
